Screening data (PubChem)
GIRK2 act = activators of human GIRK2 potassium channels; HEK293-GIRK2 thallium flux, Thallos fluorescence; AID 1259325; P48051; 63,000 compounds, 0.05% hits; calls only for hits at 25 µM;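 active means among the strongest 0.2% of first-round signals and kept after retests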;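 further: first round at about 10 µM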
Target sequence (P48051 whole entry, looked up): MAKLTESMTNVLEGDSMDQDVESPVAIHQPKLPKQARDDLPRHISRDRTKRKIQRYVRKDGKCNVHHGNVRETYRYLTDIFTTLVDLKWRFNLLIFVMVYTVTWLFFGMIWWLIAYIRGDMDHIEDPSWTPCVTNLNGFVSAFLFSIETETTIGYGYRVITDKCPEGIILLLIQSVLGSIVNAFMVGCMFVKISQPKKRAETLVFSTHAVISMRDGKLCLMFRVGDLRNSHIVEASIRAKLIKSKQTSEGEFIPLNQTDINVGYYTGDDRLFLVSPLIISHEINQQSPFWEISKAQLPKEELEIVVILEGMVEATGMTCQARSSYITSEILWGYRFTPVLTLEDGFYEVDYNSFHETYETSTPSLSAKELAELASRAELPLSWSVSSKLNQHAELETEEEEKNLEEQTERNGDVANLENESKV
Calls only; i = inactive. This is a subset, so the mix of outcomes need not match the whole.

SMILES	GIRK2 act
Cn1c(=O)c2c(nc(CN3CCN(C(=O)c4ccco4)CC3)n2CCN2CCOCC2)n(C)c1=O	i
COc1cccc(C(=O)N2CCN(c3cc(-n4cccc4)ncn3)CC2)c1OC	i
COc1ccc(NC(=O)Cn2nc(SC)c(S(=O)(=O)c3ccc(F)cc3)c2N)cc1OC	i
CS(=O)(=O)N1CCC(C(=O)Nc2cc(-n3cccn3)ncn2)CC1	i
C#C[C@]1(O)CC[C@H]2[C@@H]3CCc4cc(O)ccc4[C@H]3CC[C@@]21C	i
CSc1ccc(/C=C2\C=C(CC(=O)NCc3cccc(Cl)c3)c3cc(F)ccc32)cc1	i
COc1ccccc1N1CCN(c2nccnc2SCC(=O)Nc2c(C)cc(C)cc2C)CC1	i
COc1cccc2sc(N3CC(OC(=O)Cn4c(=O)oc5ccccc54)C3)nc12	i
Cc1ccc(OCC(=O)Nc2ccc3c(c2)N(CCC(C)C)C(=O)C(C)(C)CO3)cc1	i
COc1ccc(NC(=O)Cn2cc(S(=O)(=O)c3ccc(C)cc3)c(=O)c3ccccc32)cc1Cl	i
O=C(NCC1CCN(Cc2ccco2)CC1)c1ccc2nsnc2c1	i
Cc1oc(-c2cccc(Cl)c2)nc1Cn1nnc(C(=O)Nc2ccc3c(c2)OCCO3)c1N	i
COc1ccc(C2CC(c3ccc(C)cc3)=NN2S(C)(=O)=O)cc1O (configuration not stated)	i
O=C(CSc1n[nH]c(=O)c2cc(-c3cccs3)nn12)N1CCCc2ccccc21	i
O=c1oc2cc(O)ccc2c(O)c1-c1ccc(Cl)cc1	i

A draw from above in order of molecular weight, lowest first:
SMILES	GIRK2 act
O=C(NCC1CCN(Cc2ccco2)CC1)c1ccc2nsnc2c1	i
COc1ccc(C2CC(c3ccc(C)cc3)=NN2S(C)(=O)=O)cc1O (configuration not stated)	i
COc1cccc2sc(N3CC(OC(=O)Cn4c(=O)oc5ccccc54)C3)nc12	i

Later entries
SMILES	GIRK2 act
O=S(=O)(NCCn1ncc2c(N3CCCC3)ncnc21)c1ccc(F)cc1	i
Cc1nc(NCCNC(=O)/C=C/c2ccccc2)cc(Nc2ccccn2)n1	i
O=C(NCC#CCN1CCCCCC1)c1ccccc1Cl	i
COc1cccc(NC(=O)NCc2cc(-c3cccs3)n(C3CCCC3)n2)c1OC	i
COc1ccc(-c2noc(Cc3nnc(-c4cc(F)cc(F)c4)o3)n2)cc1	i
O=C(Nc1cnc(N2CCOCC2)nc1)c1cnccn1	i
O=C(NCCc1ccccc1)N1CCC(c2nnc(-c3ccco3)s2)CC1	i
CCCCCNC(=O)c1nnn(-c2ccccc2Cl)c1-c1ccncc1	i
O=C(CSc1nnc(N2CCN(c3ccc(F)cc3)CC2)s1)NCc1ccco1	i
COCC(=O)N1CCC2(CCc3ccccc3O2)CC1	i
Cc1nc(SCC(=O)Nc2ccccc2Br)cc(-c2ccccn2)n1	i
CCOc1ccccc1C(=O)NCc1nn(C2CCCC2)c(=O)c2ccccc12	i
Cc1cc(CCNC(=O)C2CC(=O)N(c3cccc(Br)c3)C2)on1 (configuration not stated)	i
COc1ccc(Oc2cncnc2-c2ccc(OCc3ccccc3)cc2O)cc1	i
O=C(Nc1cnc(N2CCOCC2)nc1)c1ccc(C(F)(F)F)cc1	i
COc1ccccc1OCC(=O)Nc1nc(CN2CCc3ccccc3C2)cs1	i
CC(=O)Nc1ccc(NC(=O)Cn2ccc3ccn(Cc4cccc(F)c4)c3c2=O)cc1	i
COc1ccc(F)cc1S(=O)(=O)NCCOc1ccc(F)cc1	i
CC(O)(CCc1ccccc1)CNC(=O)NCc1cccs1 (configuration not stated)	i
Cn1cnc(S(=O)(=O)NCC(O)(c2ccccc2)C2CC2)c1 (configuration not stated)	i
O=C(Nc1ncc(Cc2cccc(C(F)(F)F)c2)s1)c1ccc(-n2cnnn2)cc1	i
O=C(Nc1nc(-c2cccnc2)cs1)C1CCCN1S(=O)(=O)c1cccs1 (configuration not stated)	i
O=C(Nc1nc(C(=O)N2CCN(C3CCCCC3)CC2)co1)c1ccsc1	i
O=C(NCC1(O)CCCC1)c1ccccc1Cl	i
O=C(Cc1noc2ccccc12)N1CCN(c2cc(-c3ccccc3)ncn2)CC1	i
O=c1cc(Cn2nc3ccc(-c4ccccc4)nn3c2=O)nc2ccccn12	i
CC(O)CNc1nc2c(c(=O)[nH]c(=O)n2C)n1CCO (configuration not stated)	i
CCNC(=O)N1CCN(CC(O)c2ccco2)CC1 (configuration not stated)	i
COc1ccc(-n2c(C)cn3c4c(=O)n(CC(C)=O)c(=O)n(C)c4nc23)cc1	i
COc1cccc(N2CCCn3c2nc2c3c(=O)n(Cc3ccccc3C)c(=O)n2C)c1	i

5 successive records already listed, quoted:
SMILES	GIRK2 act
O=c1cc(Cn2nc3ccc(-c4ccccc4)nn3c2=O)nc2ccccn12	i
CC(O)CNc1nc2c(c(=O)[nH]c(=O)n2C)n1CCO (configuration not stated)	i
CCNC(=O)N1CCN(CC(O)c2ccco2)CC1 (configuration not stated)	i
COc1ccc(-n2c(C)cn3c4c(=O)n(CC(C)=O)c(=O)n(C)c4nc23)cc1	i
COc1cccc(N2CCCn3c2nc2c3c(=O)n(Cc3ccccc3C)c(=O)n2C)c1	i

The list goes on:
SMILES	GIRK2 act
COc1ccc(S(=O)(=O)N2CCCc3cc(NC(=O)c4ccccc4)ccc32)cc1	i
CC(=O)OC(C)(C)/C=C/C(=O)C(C)(O)C1C(O)CC2(C)C3CC=C(C(C)(C)C(=O)O)C(CC(=O)O)C3(C)C(=O)CC12C (configuration not stated)	i
CC(C)NC(=O)C1CCCN(c2ccc(-c3ccc(Cl)cc3)nn2)C1 (configuration not stated)	i
NC(=O)c1ccc(NC(=O)CN2CCN(c3ccc4c(c3)OCO4)C2=O)cc1	i
COc1cccc(NCCN2N=C(C)C(C)n3c2nc2c3c(=O)n(C)c(=O)n2C)c1 (configuration not stated)	i
CCOc1ccc(CNC(=O)CCn2cnc3c([nH]c4ccc(F)cc43)c2=O)cc1OCC	i
COc1ccccc1CNC(=O)C1=Cc2cc(Cl)ccc2OC=C1	i
Cn1c2c(c(=O)c3cc(Cl)ccc31)CN(C(=O)NCc1ccc(F)cc1)CC2	i
CCOC(=O)c1ccc(NC(=O)CN2CCN(c3ccccc3F)C2=O)cc1	i
COC(=O)c1ccc(C(=O)OC)c(NC(=O)C2=Cc3cc(OC)ccc3OC=C2)c1	i
COC(=O)Cn1c(=O)c2c(nc3n2CC(C)CN3c2ccccc2)n(C)c1=O (configuration not stated)	i
COCCOCC1CCN(C(=O)NC(C)(C)C)CC1	i
CCCOc1ccc(CNC(=O)CCn2c(=O)[nH]c3ccsc3c2=O)cc1	i
CCNC(=O)N1CCOC(Cc2ccccc2)C1 (configuration not stated)	i
CCOC(=O)c1c(S(=O)(=O)Nc2ccc(C(C)C)cc2)n[nH]c1CC	i

Overlap with the part before: 6 entries, followed by the next part.
SMILES	GIRK2 act
COC(=O)c1ccc(C(=O)OC)c(NC(=O)C2=Cc3cc(OC)ccc3OC=C2)c1	i
COC(=O)Cn1c(=O)c2c(nc3n2CC(C)CN3c2ccccc2)n(C)c1=O (configuration not stated)	i
COCCOCC1CCN(C(=O)NC(C)(C)C)CC1	i
CCCOc1ccc(CNC(=O)CCn2c(=O)[nH]c3ccsc3c2=O)cc1	i
CCNC(=O)N1CCOC(Cc2ccccc2)C1 (configuration not stated)	i
CCOC(=O)c1c(S(=O)(=O)Nc2ccc(C(C)C)cc2)n[nH]c1CC	i
Cc1ccc(N2CC(O)Cn3c2nc2c3c(=O)n(Cc3ccccc3Cl)c(=O)n2C)cc1 (configuration not stated)	i
CCCN1C(SCC(=O)Nc2cc(Cl)ccc2OC)=NS(=O)(=O)c2ccccc21	i
O=C(NCC#CCN1CCCC1)Nc1c(F)cccc1F	i
Cc1ccc(S(=O)(=O)N2CCCc3ccc(NC(=O)COc4ccccc4)cc32)cc1	i
Cc1ccc(C(C)C)c(OCC(O)CN2CCc3ccccc3C2)c1 (configuration not stated)	i
Cn1cc(C2=C(N3CCOCC3)C(=O)NC2=O)c2ccccc21	i
COC(=O)c1c(NCc2ccc(OC)c(OC)c2)c2cc(Cl)ccc2[nH]c1=O	i
O=C(c1ccoc1)N1CCC(CNC(=O)C2(c3ccc(Cl)cc3)CCCC2)CC1	i
O=C(CCC1=NNC2C3CC(c4ccccc4)NN3C=CN12)NCc1ccccc1Cl (configuration not stated)	i
COCCOC(=O)c1c(C)oc2ccc(OC(=O)c3c(OC)cccc3OC)cc12	i
CC(=O)c1ccc(NC(=O)c2cc3cccnc3n(C)c2=O)cc1	i
O=C(NCC1(c2ccc(F)cc2)CC1)Nc1c(F)cccc1F	i
C#CC(C)(CC)OCC(O)CN1CCN(Cc2ccccc2)CC1 (configuration not stated)	i
CN(C)CC(=O)NCCC12CC3CC(CC(C3)C1)C2	i
COc1cc(OC)cc(C(=O)NCCn2ncccc2=O)c1	i

Reformatted: entries from further up.
GIRK2 act	Compound
i	CC(=O)c1ccc(NC(=O)c2cc3cccnc3n(C)c2=O)cc1
i	O=C(NCC1(c2ccc(F)cc2)CC1)Nc1c(F)cccc1F

The list goes on.
SMILES	GIRK2 act
O=C(NCC1CCCO1)c1nnn(-c2ccccc2)c1-c1ccccn1 (configuration not stated)	i
O=C1NC(=O)C(N2CCc3ccccc32)=C1c1ccc(Cl)cc1	i
O=C(CCS(=O)(=O)c1ccccc1)NCC1(O)CCOc2ccccc21 (configuration not stated)	i
CCC(C(=O)NCC1CCN(C(=O)c2ccoc2)CC1)c1ccccc1 (configuration not stated)	i
Cc1ccc(OCC(=O)NCCS(=O)(=O)N2CCN(Cc3ccccc3)CC2)cc1	i
COc1ccc(-n2ccn(Cc3ccc(Cl)cc3)c(=O)c2=O)cc1	i
COc1ccccc1C(=O)NCC(O)c1cccc2ccccc12 (configuration not stated)	i
CCc1cccc(NC(=O)CSc2nc3nc(N4CCC(C)CC4)sc3c(=O)n2CC)c1	i
Cc1cc(OCC(=O)Nc2ccc(F)cc2Cl)nc(N2CCc3ccccc3C2)n1	i
COc1ccccc1OCC(=O)NCCC(O)c1cccc2ccccc12 (configuration not stated)	i
COc1ccccc1OCC(=O)NCC1(c2ccc(F)cc2)CC1	i
COc1ccc(NC(=O)CCc2c(C)[nH]c(=O)[nH]c2=O)cc1Cl	i
COc1ccc2c(c1)c(=O)c(S(=O)(=O)c1ccc(Cl)cc1)cn2CC(=O)Nc1ccc(C)cc1	i
COc1ccc2ncc(C#N)c(N3CCC(C(=O)Nc4cc(OC)c(OC)c(OC)c4)CC3)c2c1	i
Cc1ccc(-n2nnc(C(=O)NCCCc3ccccc3)c2-c2ccncc2)cc1C	i
COc1ccc(S(=O)(=O)CC(=O)Nc2nnc(-c3cc(C)oc3C)o2)cc1	i
O=C(NCCNc1cc(Nc2ccccn2)ncn1)Nc1ccccc1	i
O=C(CCS(=O)(=O)c1ccccc1)N1CCN(CC(F)(F)F)CC1	i
Cc1cccc(C)c1NC(=O)Cn1nc(-c2ccco2)c2sc(N3CCCC3)nc2c1=O	i
O=C1CCc2cc(S(=O)(=O)N3CCc4ccccc4C3)cc3c2N1CC3	i
CS(=O)(=O)N1CCN(C(=O)c2ccsc2)CC1	i
CC(C)N(CC#CCNC(=O)Cc1cccc2ccccc12)C(C)C	i
COc1ccc(NC(=O)NC2(c3nc(C4CC4)no3)CCCCC2)cc1Cl	i
COC(=O)c1ccc(NC(=O)c2cc(=O)c(OCc3ccccc3)cn2C)cc1	i
Cc1ccc2c(Nc3ccc(F)c(C#N)c3)c(C(=O)N3CCOCC3)cnc2n1	i
Cc1ccc(-n2nnc3c(N4CCN(C(=O)COc5ccccc5C)CC4)ncnc32)cc1	i
O=C1CCCC(=O)N1CCS(=O)(=O)N1CCC(c2nnc(-c3ccco3)s2)CC1	i
O=C(Nc1cnoc1)c1ccc(Br)o1	i
COc1ccc(S(=O)(=O)N2CCCCC2)cc1C(=O)Nc1cccc2cnccc12	i
Cn1c(=O)c(C(=O)Nc2ccc([N+](=O)[O-])cc2)cc2cccnc21	i
Cc1cc(C)n(-c2nc(CCNC(=O)c3cc(-c4ccc5c(c4)OCO5)n[nH]3)cs2)n1	i
Cc1nnc(C2CCCN(C(=O)c3ccc(Cl)s3)C2)s1 (configuration not stated)	i
COCCNC(=O)N1CCC(S(=O)(=O)c2ccccc2)C1 (configuration not stated)	i
O=c1[nH]cnc2[nH]ncc12	i
Cc1cc(NC(=O)CN2CCN(c3c(C)nn(C4CCS(=O)(=O)C4)c3C)CC2)no1 (configuration not stated)	i
O=C(O)c1ccc(NC(=O)c2cccnc2-c2nc3ccccc3s2)cc1	i
O=C(CSC1CCCC1)NCCn1nc(C2CC2)n(-c2ccccc2)c1=O	i
Cc1ccc(N2CCN(C(=O)Nc3cccc(Cl)c3C)CC2)nn1	i
CCC(C(=O)Nc1cnc(Oc2ccccc2)nc1)c1ccccc1 (configuration not stated)	i
Cc1csc(NC(=O)CN2CC(c3nc(-c4cccc(Cl)c4)no3)C2)n1	i
CCc1cccc(C)c1NC(=O)COc1cc(C)nc(N2CCCC2)n1	i
CCn1c(C2CC(=O)N(CC(C)C)C2)nc2ccccc21 (configuration not stated)	i
Cn1cc(C2=C(c3cn(CCCCCSC(=N)N)c4ccccc34)C(=O)NC2=O)c2ccccc21	i
COCCNC(=O)Nc1nc(-c2ccc(F)cc2)cs1	i
COC(=O)Cn1c(=O)c2c(nc3n(-c4cc(C)cc(C)c4)c(C)c(C)n23)n(C)c1=O	i
O=C(c1cccc(Cl)c1)N(Cc1ccsc1)CC(F)(F)F	i
O=C(NCc1cccc(C(F)(F)F)c1)c1nnn(-c2ccccc2F)c1-c1cccnc1	i
CC(C)NC(=O)N1CCCC(c2nnc(-c3ccccc3F)s2)C1 (configuration not stated)	i
N[C@@H](CO)c1ccccc1	i
Cc1noc(CNC(=O)C2CCN(C(=O)c3csc(-c4ccccc4)n3)CC2)n1	i
O=C(CCn1ccc(=O)[nH]c1=O)N1CCN(C(=O)C2CC2c2cccs2)CC1 (configuration not stated)	i
CN(C1CCCC1)S(=O)(=O)c1ccc(C(=O)Nc2ccc3c(c2)OCO3)cc1	i
Cc1nn(-c2ccccc2)c2sc(C(=O)NC(=S)NCc3ccco3)cc12	i
Cc1ccc(C(O)CNC(=O)NCc2cccs2)o1 (configuration not stated)	i
O=C(c1cc2n(n1)CCCO2)N1CCN(Cc2ccc3c(c2)OCO3)CC1	i
